Assay outcomes: PubChem, National Center for Advancing Translational Sciences (NCATS)
VDR inh: blocks the human vitamin D receptor | P11473 | VDR-SRC2-3 peptide fluorescence polarization, 2 h | Potency, µM, without a hit: max response, negative = inhibition, most hits filed as inhibitors | 0.93% of 400,000 active; active means well fitted inhibition curve with a large enough effect; inconclusive means small, poorly fitted or top-dose-only effect, or another doubt; inactive means no such curve, though single readings can be large or run the other way; further: series mostly up to about 120 µM
Target sequence (P11473 whole entry, looked up): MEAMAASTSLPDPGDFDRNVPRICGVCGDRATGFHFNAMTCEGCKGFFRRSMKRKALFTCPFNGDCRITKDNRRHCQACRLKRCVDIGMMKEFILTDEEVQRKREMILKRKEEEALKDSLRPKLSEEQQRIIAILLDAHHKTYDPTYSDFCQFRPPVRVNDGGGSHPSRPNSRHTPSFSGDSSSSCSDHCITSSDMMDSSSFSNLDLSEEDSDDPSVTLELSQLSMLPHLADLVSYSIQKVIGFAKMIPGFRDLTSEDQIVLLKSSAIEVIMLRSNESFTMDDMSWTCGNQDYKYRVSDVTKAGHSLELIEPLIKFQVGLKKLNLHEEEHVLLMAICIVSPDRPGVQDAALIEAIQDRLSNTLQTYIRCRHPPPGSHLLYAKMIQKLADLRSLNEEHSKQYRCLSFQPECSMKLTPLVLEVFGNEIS
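Two reagent solutions held at 4 deg C in the dark were dispensed, compounds pinned at 23 nl, and the mixture incubated 2 h at room temperature. Read-out: fluorescence polarization of VDR–SRC2-3 peptide binding.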
The depositor's hits bear a star; u = inconclusive; & = joins results of further samples; ! = repeats disagree; [ ] = another dose, or the depositor's remark. On the % scale 0 is the no-effect control and ±100 the full control effect; potency means the concentration at half of the fitted maximal effect.

SMILES	VDR inh
COc1ccc(F)cc1C(=O)C1CCCN(C(=O)c2ocnc2C)C1 (configuration not stated)	-4%
C/C(=N/N1CCN(Cc2ccccc2)CC1)c1ccc(Br)cc1	4%
CCCCOC(=O)Nc1ccccc1C(=O)N1CCCC1	-11%
CC1CN(C(=O)CCC(=O)NCCc2ccccc2)c2ccccc2O1 (configuration not stated)	-10%
Cc1cccn2c(=S)[nH]nc12	u
O=C(CCS(=O)(=O)c1cc2c3c(c1)CCN3C(=O)CC2)NCc1ccc(Cl)cc1	-1%
COC(=O)C1C(=O)c2c([nH]c(C(=O)OC3CCCCC3)c2C)CC1C (configuration not stated)	-23%
COc1cc2c(cc1NC(=O)c1cc(-c3ccncc3)nc3ccc(C)cc13)oc1ccccc12	2%
O=C1CCCc2c1cc(C(=O)Nc1ccc(Br)cn1)c(=O)n2-c1ccccc1	u
COc1cc(NC(=O)c2cc3cc4ccc(OC)c(Cl)c4nc3s2)cc(OC)c1	4%
CC1(C)CC(=O)c2cn3ncnc3nc2C1	3%
COc1ccc(-c2nnc(NC(=O)CS(=O)(=O)c3ccc(F)cc3)o2)cc1	-15%
COc1ccc(C)cc1NC(=O)C(OC(=O)CNC(=O)c1ccc(Br)cc1)c1ccccc1 (configuration not stated)	-2%
COc1cc(NCCCC(C)N)c2ncccc2c1 (configuration not stated)	45µM*!
CCc1ccc2oc(C(=O)N3CCN(c4ccc(OC)cc4)CC3)cc(=O)c2c1	-11%
C[C@@H]1NS(=O)(=O)c2cc(Cl)ccc2O[C@@H]1c1ccccc1	-10%
CCOc1ccc(C2CC(=O)n3nc(C45CC6CC(CC(C6)C4)C5)nc3S2)cc1OC (configuration not stated)	-9%
O=C(O)CCCC(=O)Nc1ccc(OCc2nc3ccccc3s2)cc1	u
Cc1ccc(C)c(-n2cc(CN3CCNC(=O)CC3)c(-c3ccccc3)n2)c1	10%
O=C(CNC1CCCCC1)NN=C(c1ccccc1)c1ccccc1	7%
O=C(O)COc1c(F)c(F)c(C(F)(F)F)c(F)c1F	-9%
COc1ccc(CNC(=O)c2nc(SCc3ccccc3F)ncc2Cl)cc1	-1%
CN(CCc1ccccn1)Cc1ccc(Cl)c(Cl)c1	9%
Cc1ccc(NC(=O)NCCCN2CCCC2=O)cc1Cl	-4%
COc1ccc(CCNS(=O)(=O)c2ccc(F)cc2)cc1OC	1%
O=C(CSc1cccc[n+]1[O-])Nc1cccc(Oc2ccccc2)c1	-19%
COC(=O)c1cc(OC)c(OC)cc1NC(=S)N1CCN(C)CC1	9%
CC1CC(C)CN(Cc2nc(N)nc(Nc3ccc4ccccc4c3)n2)C1 (configuration not stated)	15%
CC(C)(C)OC(=O)N[C@H](/C=C/c1ccccc1)C(=O)OC(C)(C)C	1%
O=C(NCCc1ccccc1Cl)c1ccc2nc3ccccc3c(=O)n2c1	1%
COc1ccccc1-n1c(Cc2cccs2)n[nH]c1=S	-2%
COC(=O)NNC(=O)Cc1cccc2ccccc12	-2%
Cc1cc(NC(=O)CCc2nc3cccnc3n2-c2ccccc2)ccc1Br	-5%
Cc1ccc(S(=O)(=O)NC(Cc2ccccc2)C(=O)O)cc1 (configuration not stated)	-1%
COc1ccc(OC)c(CNC(=O)CCn2c(=O)c3cccn3c3ccc(F)cc32)c1	8%&-3%
CCOC(=O)CCCn1nc(C)n2c(cc3sccc32)c1=O	-11%
CCN(CC)C(=O)CSC1=C(C#N)C(c2ccco2)C(C(=O)OCCOC)=C(C)N1 (configuration not stated)	-6%
COc1ccccc1CNCc1cccc(Oc2ccccc2)c1	4%
Cc1ccc(Cl)cc1-c1ccc(/C=N/n2cnnc2)o1	0%
COc1cc(C(=O)N=C2SC3CS(=O)(=O)CC3N2c2ccccc2)cc(OC)c1OC (configuration not stated)	5%
CC1CCCN(C(=O)C2CCN(S(=O)(=O)c3cccc4nonc34)CC2)C1 (configuration not stated)	-13%
Nc1nc(SCc2ccc([N+](=O)[O-])cc2)nc2nc3c(cc12)CCCC3	-8%
COC(=O)c1ccc(C2/C(=C(/O)c3ccc(OC)cc3)C(=O)C(=O)N2Cc2ccco2)cc1 (configuration not stated)	-7%
O=C(O)Cn1c2ccccc2c2ccccc21	-4%
CC(=O)Nc1cccc(NC(=O)C(=O)Nc2ccc3c(c2)N(C(=O)C2CC2)CCC3)c1	-10%

Single values from the list.
For VDR inh, `Cc1ccc(S(=O)(=O)NC(Cc2ccccc2)C(=O)O)cc1` (configuration not stated) has the entry -1%
For VDR inh, `Nc1nc(SCc2ccc([N+](=O)[O-])cc2)nc2nc3c(cc12)CCCC3` has the entry -8%

Additional entries:
SMILES	VDR inh
COc1ccc(/C=C/C(=O)N2CCN(C)CC2)cc1OC	-30%
CC(NC(=S)NC1CCCCC1)C(c1ccccc1)N1CCOCC1 (configuration not stated)	-2%
Cc1oc(-c2ccc(Cl)cc2)nc1CS(=O)CC(=O)NCc1ccc(Cl)cc1 (configuration not stated)	-7%
CCOC(=O)C1(Cc2ccc(OC)cc2)CCN(C(=O)c2cc(C)nn2C)CC1	-4%
O=C(CNc1cccc(C(F)(F)F)c1)N/N=C/c1ccccc1C(=O)O	-6%
CCCn1c(SCC(=O)Nc2c(C)cccc2CC)nnc1C(C)C	-9%
CCN(CC)c1ccc(NS(=O)(=O)c2ccc(OC)cc2)cc1	-4%
COc1ccccc1NS(=O)(=O)c1ccc(Cl)c(NC(=O)c2sc3cc(Cl)ccc3c2Cl)c1	-1%
CCCCC[C@H](CC(=O)NO)C(=O)N[C@H](C(=O)N1CCC[C@H]1CO)C(C)C	-2%
COc1ccc2cc(/C=N/O)c(Cl)nc2c1	-20%
Cc1ccc2nc(COc3cccc(NC(=O)Nc4ccc(C)c(Cl)c4)c3)cc(=O)n2c1	4%
COc1ccc(CN2CCNC(=O)C2CC(=O)NC2CCCCCCC2)cc1OC (configuration not stated)	14%
O=C1CSC(c2cccnc2)N1c1ccc(Cl)cc1 (configuration not stated)	-7%
O=C(Nc1cccc(C(F)(F)F)c1)c1ccccc1NC(=O)C1CCCCC1	-9%
CCCNC(=O)NC(=O)CSc1nc(C)cs1	-7%
Cc1cc(OCCN2CCOCC2)ccc1Cl	-29%
Cc1cc(NC(=O)COC(=O)c2ccc([N+](=O)[O-])cc2Cl)no1	-1%
CCOC(=O)N1CCC(N2CCCC(C(=O)c3cc(C)c(OC)c(C)c3)C2)CC1 (configuration not stated)	8%
COc1ccc(-c2noc(N3CCN(c4ccc(Cl)cc4)CC3)n2)cc1OC	12%
Cc1ccc(S(=O)(=O)N(C)C)cc1NC(=O)c1c(-c2c(F)cccc2Cl)noc1C	19%
COc1cc2[nH]c(=O)n(CCC(=O)N3CCN(c4ccc(Cl)cc4)CC3)c(=O)c2cc1OC	-15%
O=C(Nc1ccc(Cl)c(Cl)c1)Nc1nccs1	3%
O=[N+]([O-])c1cc(Cl)ccc1Oc1ccc(-c2nnco2)cc1	-10%
Cc1ccc2nc(-c3cc(NC(=O)/C=C/c4ccccc4)ccc3Cl)oc2c1	-12%
COc1ccc(Nc2nnc(-c3ccc(C(=O)NCCO)cc3)c3ccccc23)cc1	31%[activator]
Cc1ccc(C(=O)OCc2nc3ccsc3c(=O)[nH]2)o1	1%
O=C(NCc1ccccn1)C1CCN(C(=O)c2cc3sccc3n2Cc2ccc(F)cc2)CC1	0%
COc1ccc2[nH]c(C)c(CN3CCC(C)CC3)c(=O)c2c1	-3%
O=C(N/N=C/c1ccco1)c1cc(-c2ccccc2)nc2ccccc12	0%
CCc1nnc(NC(=O)CSc2nc3c(c(=O)n2CC)SC(C)C3)s1 (configuration not stated)	-6%
O=C(Nc1ccc(S(=O)(=O)N2CCCCC2)cc1)c1ccccc1F	-3%
C#CCOCCOCCOCCNc1nc(N2CCN(C(=O)[C@H](CCCCN)n3cc(CN)nn3)CC2)nc(N2CCN(C(=O)[C@H](CCC(=O)O)n3cc([C@@H](N)CCSC)nn3)CC2)n1	10%
Cc1ccc2cccc(N=Cc3c(C)[nH]n(-c4ccccc4)c3=O)c2n1	-19%
CC(=O)CN1Cc2ccccc2/C1=N\C(=O)Nc1ccccc1	-8%
CN(CC(=O)Nc1ccc(OC(F)(F)F)cc1)S(=O)(=O)c1cnc[nH]1	-1%
COC1=C/C(=C/c2c(N)n3nc(-c4ccc(C)cc4)sc3nc2=O)C=CC1=O	5%
Cc1onc(-c2ccccc2Cl)c1C(=O)Nc1ccc(S(=O)(=O)N2CCCC2)cc1	-16%
O=C(Nc1ccc2c(c1)CCCN2C(=O)c1cccs1)c1ccccc1	-24%&-11%
CCCCC/C=C\C=C\C(O)CCCCCCCC(=O)O (configuration not stated)	0%
Cc1ccsc1CN1CC(=O)N(c2c(C)cccc2C)C1=S	-5%
O=C(NC(=S)N(Cc1ccccc1)Cc1ccccc1)C1CCCCC1	4%
O=C(O)c1c(-c2ccccc2)oc2ccc(OCc3c(F)cccc3Cl)cc12	-25%
CCN1CCN(S(=O)(=O)c2ccc(Cl)c(C(=O)NC3CC3)c2)CC1	10%
O=C(CN1C(=O)NC2(CCCCCC2)C1=O)Nc1ccc(Cl)c([N+](=O)[O-])c1	-22%
CCCCCCN[C@H]1CCC2C3CC=C4C[C@@H](O)CC[C@]4(C)C3CC[C@@]21C (some centres not stated)	10%
Cc1ccc(S(=O)(=O)c2cc3c(=O)n4ccccc4nc3n(Cc3ccco3)c2=N)cc1C	4%
CCOC(=O)Cc1csc(NC(=O)CSc2nnc(-c3ccc(NS(=O)(=O)CC)cc3)o2)n1	23%
CC(=O)c1cccc(NS(=O)(=O)c2ccc3c(c2)oc(=O)n3C)c1	1%
CNC(=O)C(=O)Nc1cc2c3c(c1)C(C)C(=O)N3CCC2 (configuration not stated)	0%
COc1ccc2[nH]cc(CCNC(=O)CCC3CCCCC3)c2c1	3%
CCOC(=O)c1cc(C(C)C)sc1NC(=O)COC(=O)c1nccnc1N	-21%
COc1ccc(N(C(=O)CNC(=O)c2ccco2)C(C(=O)NCC2CCCO2)c2ccccc2)c(OC)c1 (configuration not stated)	0%
COC(=O)/C(=C\c1c(OC)cc(OC)cc1OC)C(=O)c1ccc2c(c1)OCO2	-8%&-2%
CN(C)c1ccc(/C=C(/C(=O)c2ccc(Cl)cc2Cl)n2cncn2)cc1	1%
COCCn1c(=O)c(-c2ccc(F)c(F)c2)nc2cncnc21	-7%
O=C(N/N=C/c1ccc2c(c1)OCO2)c1ccc(NS(=O)(=O)c2cccs2)cc1	-22%
CSc1nnc(CSCc2ccc(Cl)cc2Cl)n1-c1ccccc1	-8%
COC(=O)C1=CO[C@@H](O)[C@@H]2C(CO)=CC[C@H]12	-1%
COc1ccccc1/C=N\NC(=O)c1ccc(COc2ccc(C)c(C)c2)o1	-3%
C=C(C)[C@H]1CC[C@]2(CO)CC[C@]3(C)[C@@H](CC[C@H]4[C@@]5(C)CC[C@@H](O)C(C)(C)[C@@H]5CC[C@@]43C)[C@H]12	0%

(cont.)
SMILES	VDR inh
O=C(N1CCOCCOc2ccccc2OCCOCC1)C(F)(F)F	-7%
Cc1cc(C)n(-c2ncc(C#N)cn2)n1	-26%
CCN1CCC(NC(=O)Nc2ccccc2C(=O)OC)CC1	-8%
Cn1c(SCC2CCCO2)nnc1-c1ccncc1 (configuration not stated)	-1%
CCc1cc2cccc(C)c2nc1SCC(=O)c1ccc(NC(C)=O)cc1	5%
COc1ccccc1C1=Nn2c(nc3sc(C(=O)Nc4ccccc4Cl)c(C)c3c2=O)SC1	9%
COc1ccc(NC(=O)CS(=O)CC(=O)N2CCN(C3CCCC3)CC2)cc1 (configuration not stated)	20%
COc1ccc(-c2nnc(SCC(=O)NC(C)c3ccccc3)o2)cc1OC (configuration not stated)	-18%
Cc1ccc(S(=O)(=O)N2CCCC(CCC(=O)NCc3ccccc3F)C2)s1 (configuration not stated)	-19%
CS(=O)(=O)c1ccc(C(=O)NCc2ccc(F)cc2)cc1	-5%
O=C(c1ccccc1C(=O)N1CCN(c2ccccc2)CC1)N1CCN(c2ccccc2)CC1	8%
O=C(N/N=C/c1ccccc1OC(F)F)C1=COCCO1	-24%

Molecules listed so far with fluorine:
SMILES	VDR inh
COc1ccc(F)cc1C(=O)C1CCCN(C(=O)c2ocnc2C)C1 (configuration not stated)	-4%
COc1ccc(-c2nnc(NC(=O)CS(=O)(=O)c3ccc(F)cc3)o2)cc1	-15%
O=C(O)COc1c(F)c(F)c(C(F)(F)F)c(F)c1F	-9%
COc1ccc(CNC(=O)c2nc(SCc3ccccc3F)ncc2Cl)cc1	-1%
COc1ccc(CCNS(=O)(=O)c2ccc(F)cc2)cc1OC	1%
COc1ccc(OC)c(CNC(=O)CCn2c(=O)c3cccn3c3ccc(F)cc32)c1	8%&-3%
O=C(CNc1cccc(C(F)(F)F)c1)N/N=C/c1ccccc1C(=O)O	-6%
O=C(Nc1cccc(C(F)(F)F)c1)c1ccccc1NC(=O)C1CCCCC1	-9%
Cc1ccc(S(=O)(=O)N(C)C)cc1NC(=O)c1c(-c2c(F)cccc2Cl)noc1C	19%
O=C(NCc1ccccn1)C1CCN(C(=O)c2cc3sccc3n2Cc2ccc(F)cc2)CC1	0%
O=C(Nc1ccc(S(=O)(=O)N2CCCCC2)cc1)c1ccccc1F	-3%
CN(CC(=O)Nc1ccc(OC(F)(F)F)cc1)S(=O)(=O)c1cnc[nH]1	-1%
O=C(O)c1c(-c2ccccc2)oc2ccc(OCc3c(F)cccc3Cl)cc12	-25%
COCCn1c(=O)c(-c2ccc(F)c(F)c2)nc2cncnc21	-7%
O=C(N1CCOCCOc2ccccc2OCCOCC1)C(F)(F)F	-7%
Cc1ccc(S(=O)(=O)N2CCCC(CCC(=O)NCc3ccccc3F)C2)s1 (configuration not stated)	-19%
CS(=O)(=O)c1ccc(C(=O)NCc2ccc(F)cc2)cc1	-5%
O=C(N/N=C/c1ccccc1OC(F)F)C1=COCCO1	-24%

Only part of the results is shown. The share of hits here may be higher or lower than overall.
